# eIF4H inh = inhibitors of RNA binding by human eIF4H; hit rate 0.94% among 290,000; inhibition, % at 35 µM; AID 2012; eIF4H fluorescence polarization binding assay;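 active = 50% or more with normal probe brightness, or confirmed in later tests; inconclusive = above 50% with abnormal brightness, or retests that disagree; inactive = below 50% or failed in later tests; about a fifth of its hits are not listed in these tables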;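 also: calls also rest on retests at 20 µM and on dose response follow-up; 0% = protein and probe with vehicle and 100% = probe without protein; strong numbers were not always called active; many hits fall short of the cut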
# PABP polyA inh = blocks human PABP binding to poly(A) RNA; P11940; fluorescence polarization; inhibition, % at 35 µM; hit rate 1% among 290,000; AID 2014;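 active = 50% or more with normal probe brightness, or confirmed in later tests; inconclusive = above 50% with abnormal brightness, or retests that disagree; inactive = below 50% or failed in later tests; about a fifth of its hits are not listed in these tables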;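 also: calls also rest on retests at 20 µM and on dose response follow-up; controls were probe without protein and protein plus probe with vehicle; some compounds called inactive have numbers as strong as hits; many hits fall short of the cut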
# Yeast UUG start = alters start codon recognition fidelity in yeast | S. cerevisiae UUG-firefly luciferase reporter, luminescence/redox ratio | AID 602363 | activity score, % at 18.7 µM | hit rate 0.13% among 350,000;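 active = replicate mean at a twofold rise or more, about +100% in these data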;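 also: firefly luciferase made from a UUG start codon reports start codon fidelity; reporter light over untreated wells divided by growth signal over untreated wells; some hits fall short of that in this replicate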
# Env fusion inh = blocks HIV Env-driven cell-cell fusion; HeLa-JRFL Env/CEM21 cell fusion, luciferase; inhibition, % at 12.3 µM; hit rate 1.1% among 360,000;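 active = mean replicate inhibition score of at least 50 and every replicate individually at or above 50; inconclusive = only one of the two criteria met; inactive = mean below 50 and not all replicates reaching 50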;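 also: 0% = plate neutral controls and 100% = maraviroc near 300 nM; one replicate is shown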
# CSC inhib = blocks cancer stem cells; hit rate 1.1% among 300,000; inhibition, % at 7.5 µM; cancer stem cell-like cells viability, luminescence;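 active = mean at 75% or more and at least half the replicates too; inconclusive = mean and replicates disagree; tested in HMLE shEcad cells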;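 also: 0% = median of negative and 100% = median of positive control wells; the first replicate is given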
# Rce1 inhib = inhibitors of yeast Ras-converting enzyme | yeast membranes, quenched prenylated peptide cleavage fluorescence | calls only | hit rate 0.27% among 290,000;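 active = fall in fluorescence gain of 50% or more versus controls, with final raw signal at or below 3038400; inconclusive = same 50% fall but final raw signal above 3038400; inactive = fall in fluorescence gain under 50%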;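 also: plate controls were neutral control wells for no effect and wells lacking membranes for full effect; tested at 10 µM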
# Target sequence (Q03530 whole entry, looked up): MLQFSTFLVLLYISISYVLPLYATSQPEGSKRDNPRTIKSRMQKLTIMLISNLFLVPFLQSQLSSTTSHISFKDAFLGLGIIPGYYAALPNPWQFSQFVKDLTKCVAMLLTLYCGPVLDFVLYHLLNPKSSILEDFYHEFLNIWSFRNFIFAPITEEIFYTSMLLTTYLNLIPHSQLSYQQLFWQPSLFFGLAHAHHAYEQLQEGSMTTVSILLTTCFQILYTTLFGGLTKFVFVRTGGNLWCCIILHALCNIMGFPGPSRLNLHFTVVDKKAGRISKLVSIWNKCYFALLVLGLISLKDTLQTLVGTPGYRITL
# MT1-MMP act inh = inhibitors of human MT1-MMP activation; HT1080 RFP-PRO-GFP cells, GFP/RFP ratio fluorescence, overnight; percent of plate control window, DMSO zero; GFP/RFP ratio change, % at 20 µM; hit rate 0.061% among 360,000; AID 651647;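 active = GFP/RFP ratio change of at least 30% with cell ATP level not reduced by more than half and red fluorescence within 50% of control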; also: strong numbers were not always called active
#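 Assay system – RFP-PRO-GFP reporter HT1080 cells · Compound dosing – single dose of 20 µM compound, 1% DMSO final · Incubation – overnight compound exposure at 37 °C · Measure – GFP/RFP fluorescence ratio · Benchmarks – DMSO wells and RFP-L50D-GFP cells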
# MT1-MMP act inh RFP = further read-out of MT1-MMP act inh, marked with its call; RFP signal change, %; measured here: RFP expression control read;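 0 = vehicle wells; hits needed this value within 50% of zero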
# An asterisk follows results filed as active; i = inactive; ? = inconclusive; . = no result given; & = joins results of further samples. Not all compounds are listed; rates above refer to the full screens.
SMILES,eIF4H inh,PABP polyA inh,Yeast UUG start,Env fusion inh,CSC inhib,Rce1 inhib,MT1-MMP act inh,MT1-MMP act inh RFP
CC(=O)N1CCC(=NNC(=O)c2cc3ccccc3cc2O)CC1,7,0,-3,-8,-16,i,-3,-2
CCCn1c(SC(C)C(=O)NCC2CCCO2)nc2cc(Cl)ccc2c1=O (centres undefined),.,.,-27,9,-1,i,-4,-6
O=C(Nc1nc(-c2ccc(F)c(F)c2)cs1)Nc1ccc(F)cc1F,12,11,-14,-6,9,i,-3,-7
O=C(NN1CCOCC1)c1ccccc1,3,-5,-17,-25,5,i,1,3
COc1ccc(-c2csc(C(C)(O)c3cccnc3)n2)cc1 (centres undefined),.,.,-21,-4,.,.,-5,-22
NC(=O)CSc1nnc(-c2cccc(S(=O)(=O)N3CCOCC3)c2)o1,.,.,-14,-32,.,.,3,2
COCc1cc(C)nc(N2CCCCC2)c1C#N,-4,-5,-2,-38,4,i,3,2
Cc1nc(Nc2ccccc2F)c2nnn(Cc3ccccc3Cl)c2n1,-3,-1,-20,6,-3,i,-1,-1
Cc1ccc(C(C)NC(=O)c2ccc3c(c2)OCCO3)cc1C (centres undefined),2,-4,13,-2,.,i,-1,2
Cc1cc(C)cc(NC(=S)NCC2CCN(C(C)c3ccccc3)C2)c1 (centres undefined),-10,-13,-18,10,31,i,9,6
CCn1c(CC(=O)Nc2ccc(Cl)c(Cl)c2)nnc1SCc1ccc(Cl)cc1,-3,-10,.,.,0,i,-1,1
N#Cc1c(C#N)c(O)c2ccccc2c1O,13,22,8,-35,-10,i,-2,5
CCc1nc(SCC(=O)Nc2ccccc2Cl)n[nH]1,-1,0,-12,2,-10,.,4,4
CNc1cncc(-c2ccc(NS(C)(=O)=O)cc2)n1,.,.,-9,-31,.,.,-18,-14
COc1cc(Cl)ccc1OCc1cc(C(=O)N2CCC(N(C)C)C2)no1 (centres undefined),3,1,-5,-7,25,i,-2,-1
Cc1ccc2c(c1)C1CN(C)CCC1N2C(=S)Nc1ccc(Cl)cc1Cl (centres undefined),-5,4,.,11,-3,i,3,-2
COc1ccccc1NC(=O)Cn1cnc2c1c(=O)n(C)c(=O)n2C,-4,-3,-9,.,-6,i,0,2
Cc1cc(=O)[nH]c(SCc2ccccc2)n1,12,6,12,17,9,i,3,3
C#CCn1cnc2c(cnn2-c2ccc(C)c(C)c2)c1=O,-1,3,-9,.,6,i,3,3
COc1cc(NC(=S)NCCN2CCOCC2)cc(OC)c1,-2,4,.,8,8,i,1,2
COc1ccc(S(=O)(=O)NCCCCCC(=O)O)cc1C(=O)O,-6,-2,-16,-7,-15,i,-1,-2
O=C(Cc1ccc(S(=O)(=O)N2CCOCC2)s1)N1CCN(S(=O)(=O)c2cccc(F)c2)CC1,.,.,-17,23,.,.,-5,3
CC(Sc1nnc(-c2ccco2)n1-c1ccccc1)C(=O)NCC1CCCO1 (centres undefined),.,.,-12,.,-12,.,-1,2
CCOC(=O)c1c(-c2ccc(OC)cc2)oc2ccc(OCC(N)=O)cc12,-4,-4,-16,-57,4,i,1,-5
CN1CCCCC1=NCCCn1cnc2c1c(=O)n(C)c(=O)n2C,-5,-9,-3,-21,-6,i,0,6
Nc1nc(-c2ccc3c(c2)OCCO3)cs1,-2,25,-16,.,.,i,4,-2
Cn1nnnc1SCC(=O)Nc1ccc(Oc2ccccc2)cc1,-10,-18,-17,-58,-2,i,-2,-7
Cc1ccc2occ(/C=N/NC(N)=S)c(=O)c2c1,6,8,-15,-43,-2,i,0,-2
O=C(Nc1ccccc1)N1CCn2c(nc3ccccc32)C1,-20,-2,.,-51,-6,i,0,-1
CCOCCOC(=O)C1=C(C)N(C)C(=O)NC1c1cc(Cl)c(O)c(OCC)c1 (centres undefined),-6,3,-4,43,3,i,3,-4
O=C(Nc1ccc(Oc2ccccc2)cc1)c1ccc2sc([C@H]3C[C@H](O)[C@@H](CO)O3)nc2c1,.,.,-13,15,.,.,-4,-27
CC1(C)CC(=O)C=C(c2cccc(OC(=O)c3ccc(-c4ccccc4)cc3)c2)C1=O,.,.,-7,-3,.,.,-5,1
COC(=O)CCN(C(=O)c1ccc(C)c([N+](=O)[O-])c1)c1ccccn1,-2,-8,.,5,2,i,-3,4
CCOC(=O)Cn1c(CN2CCN(C(c3ccccc3)c3ccccc3)CC2)nc2c1c(=O)n(C)c(=O)n2C,-2,-10,-1,-36,-16,i,-5,-16
CCOC(=O)c1c(NC(=O)Cn2cnc([N+](=O)[O-])n2)sc2c1CCC(C)C2 (centres undefined),-18,-6,18,-44,-4,i,2,-1
CCOC(=O)c1c(C)oc2c1c(C(c1cccnc1)N1CCOCC1)c(O)c1ccccc12 (centres undefined),2,4,.,.,83*,i,-4,-11
CN1CCN(S(=O)(=O)c2cccc(C(=O)Nc3cc(C(F)(F)F)ccc3N3CCCC3)c2)CC1,.,.,.,.,1,i,0,-2
COc1ccc(CCNc2oc(-c3ccc(OC)c(OC)c3)nc2C#N)cc1,-9,0,-12,14,-4,i,4,-4
CCOC(=O)Cn1nc(C)c(NC(=O)COc2ccc([N+](=O)[O-])cc2)c1C,-1,-1,.,7,-14,i,2,3
CS(=O)(=O)N(CC(=O)N/N=C/c1ccccc1C(=O)O)c1cccc(Cl)c1Cl,11,1,.,-16,-9,i,-6,-4
O=C1c2ccccc2C(=O)N1CN(C(=O)c1ccccc1[N+](=O)[O-])c1ccc(F)cc1,-10,-6,5,6,-1,i,0,4
Cc1csc(NC(=O)c2cccc(Cn3nc(C)c(Br)c3C)c2)n1,-11,-6,0,-2,63,i,4,-9
Cc1coc(C)c1C(=O)CC1(O)C(=O)N(C)c2ccc(Cl)cc21 (centres undefined),12,-3,.,1,-11,i,0,6
CCOC(=O)c1sc(SCc2ccccc2)c2c1CC(C)(C)CC2=O,.,.,-15,40,46,i,-1,-3
Cc1ccc(N=c2c([N+](=O)[O-])nn(-c3ccc4c(c3)OCCO4)n2O)c(Cl)c1,2,45,.,.,-4,.,.,.

# Profiles, looked up by structure.
# `Cc1ccc(N=c2c([N+](=O)[O-])nn(-c3ccc4c(c3)OCCO4)n2O)c(Cl)c1` across the screens: eIF4H inh = 2; PABP polyA inh = 45; Yeast UUG start = .; Env fusion inh = .; CSC inhib = -4; Rce1 inhib = .; MT1-MMP act inh = .; MT1-MMP act inh RFP = .
# `CCOC(=O)c1sc(SCc2ccccc2)c2c1CC(C)(C)CC2=O` across the screens: eIF4H inh = .; PABP polyA inh = .; Yeast UUG start = -15; Env fusion inh = 40; CSC inhib = 46; Rce1 inhib = i; MT1-MMP act inh = -1; MT1-MMP act inh RFP = -3

# Next entries follow.
SMILES,eIF4H inh,PABP polyA inh,Yeast UUG start,Env fusion inh,CSC inhib,Rce1 inhib,MT1-MMP act inh,MT1-MMP act inh RFP
CN1C(=O)c2ccccc2C(C(=O)O)C1c1cccc(Cl)c1 (centres undefined),3,9,.,8,-5,i,0,8
O=C(CN1C(=O)C2CCCCN2C(=O)c2ccccc21)N1CCCc2ccccc21 (centres undefined),-4,-13,-6,.,-6,i,1,3
c1ccc(N=P(N2CCOCC2)(N2CCOCC2)N2CCOCC2)cc1,-13,3,-6,-37,0,i,2,6
COc1ccc(NC(=S)N(CCN(C)C)C(C)c2ccco2)cc1 (centres undefined),-8,-7,-2,-2,-20,i,4,4
Cc1ccc(C(=O)N2CCN(C3CCCCC3)CC2)s1,7,-2,-14,-16,-7,i,2,4
Cn1c(=O)c2c(nc(CN3CCN(c4ccccc4)CC3)n2CCN2CCOCC2)n(C)c1=O,6,5,.,-8,11,i,.,.
CC(=O)N1c2ccc(S(=O)(=O)NCC3CCC(C(=O)NCc4ccc(C)cc4)CC3)cc2CC1C (centres undefined),6,-4,9,-3,-9,i,2,-8
COc1ccc(S(=O)(=O)Nc2ccc3cn[nH]c3c2)cc1[N+](=O)[O-],.,.,-13,.,-6,.,9,-4
CC(=O)OCC1=C(C(=O)OC(C)(C)C)N2C(=O)[C@@H](NC(=O)Cc3ccccc3)[C@H]2SC1,.,.,-13,2,.,.,4,5
Cc1cccc(NC(=O)c2cc3c(n(-c4ccccc4)c2=O)CCCC3=O)n1,0,4,-11,.,.,i,0,1
Cc1cc([N+](=O)[O-])cc2c1NC(=O)C2(O)N1CCCC(C)C1 (centres undefined),-4,-2,.,15,6,i,-1,-2
COC(=O)CSc1nnc(CNC(=O)c2cccc(C)c2)n1-c1ccccc1OC,-6,4,-8,-29,-8,i,2,1
Cc1ccc(/C=C2/NC(=O)N(c3ccccc3)C2=O)o1,12,18,2,-71,12,i,-8,8
COCC(C)NC(=O)c1cc2cc(OC)ccc2[nH]1 (centres undefined),11,-4,.,1,-9,i,1,1
Cc1cc(C)c(NC(N)=S)c(C)c1,-6,-1,-19,-11,-2,i,-1,-2
O=C(C[C@H]1C[C@H]2c3cc(NS(=O)(=O)c4ccc(F)cc4)ccc3O[C@H]2[C@H](CO)O1)NCc1cc(F)ccc1F,.,.,-8&0,-75,.,.,6,-11
CCCCCN(C(=O)CCC(=O)OCC(=O)N1CCCCC1C)c1c(N)n(CCCC)c(=O)[nH]c1=O (centres undefined),8,6,21,6,-7,i,0,-1
CCOc1ccc(CCNC(=O)COC(=O)COc2ccccc2C)cc1OCC,.,.,.,5,-24,i,4,-1
COc1cccc(CNC(=O)N2CCN(S(=O)(=O)c3ccc(C)cc3)CC2)c1,30,-2,-7,-9,-20,i,2,-3
COc1ccc(OC)c(N(CC(=O)N2CCCC2)S(=O)(=O)c2ccc(C)cc2)c1,-5,0,-11,-14,-7,i,-2,0
Cc1cc(C)c(OCCCCNCc2ccccc2)c(Cl)c1,-3,6,-3,47,51,i,-13,-12
COc1cc(NC2CCCCC2O)c2nc(-c3ccc(Cl)cc3)ccc2c1 (centres undefined),-2,-1,-21,-14,?,i,1,0
CC1(C(=O)NCc2ccc(Cl)c(Cl)c2)Oc2cccnc2NC1=O (centres undefined),-2,-13,-5,7,.,i,5,4
O=C(C(=O)N1CCN(c2ccccc2)CC1)c1c[nH]c2ccccc12,10,3,.,-2,13,i,3,2
O=C(CSc1nnc(COc2cccc3cccnc23)o1)N1CCc2ccccc21,0,-8,-5,.,22,i,-9,7
Cc1cc(O)ccc1NC(=S)NC(=O)c1cncc(Br)c1,8,-2,-25,-9,22,i,5,-3
COCCN(Cc1cc2cc(C)ccc2nc1Cl)C(=O)Nc1ccccc1C,5,6,-16,-15,.,i,2,4
Cc1nc(Nc2ccccc2C(F)(F)F)sc1C(=O)N(C)C,-5,-7,-13,-16,13,i,-2,-7
O=C(Cc1ccccc1)N/N=C/c1ccc(-c2ccc([N+](=O)[O-])cc2)o1,-11,-8,-17,-17,0,i,-16,-3
Cc1cccc(C)c1OC(=O)C(c1ccccc1)c1ccccc1,3,2,.,18,.,i,-7,-3
CCOC(=O)C1=CN(CC)S(=O)(=O)NC1c1ccc2ccccc2c1 (centres undefined),.,.,-1,13,.,.,1,-3
CCOc1ccccc1NC(=O)Cn1c(=O)n(-c2ccccc2)c(=O)c2oc3ccccc3c21,2,-18,.,-60,2,i,-1,-1
CS(=O)(=O)N(CC(=O)N/N=C/c1ccco1)c1ccccc1Br,8,2,.,-13,-5,i,3,2
CCc1nn(C(C)C(=O)NCCN2CCCCCC2)c(=O)c2cc3occc3n12 (centres undefined),-11,-2,12,15,-7,i,-4,2
COC(=O)c1ccc(CSC2=NC[C@@H]3[C@@H]4C(=O)N(C)C(=O)[C@@H]4[C@](Cc4ccccc4)(C(=O)OC)N23)cc1,.,.,1,-10,.,.,0,2
CCCc1cc(C(=O)NCc2ccccc2)no1,4,-4,-16,-14,.,i,8,3

# Assay outcomes: PubChem, several laboratories
